Bst PK mod = alters activity of Bacillus stearothermophilus pyruvate kinase; partly purified Bacillus stearothermophilus pyruvate kinase, luminescence ATP production; ribose 5-phosphate activator present at AC10; Potency, µM; 51,000 compounds, 1.2% hits; in the data active means potency below about 11 µM; inconclusive means mostly about 12 µM to 25 µM; inactive means weaker than that;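 the screen sought inhibitors and activators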;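 also: potency is read from the fitted curve at half-maximal effect; scaled between full activation by ribose 5 phosphate and full inhibition by luteolin; about four in five hits inhibit and the cells do not say which; series up to 57 µM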
TsaE inh = displaces an ADP probe from E. coli YjeE (TsaE). purified YjeE, fluorescence polarisation of a bound ADP probe. Potency, µM. 71,000 compounds, 0.05% hits; active = well fitted falling curve; inconclusive = weaker or top-dose-only fall, or a rising curve; inactive = flat or poorly fitted curve;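 also: top concentration of the series not given in the record; excess ADP was the control for the full effect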
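Fluorescence polarization of a BODIPY Texas Red–ADP probe (2 uM) bound to purified YjeE (10 uM) was read after 15 min room-temperature incubation with compounds. Loss of polarization marks inhibitors; ADP serves as titrated control.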
* hit, by the source's call; i = inactive; x = not tested or not shown.

SMILES | Bst PK mod | TsaE inh
O=[N+]([O-])O[C@H]1CO[C@H]2[C@H]1OC[C@@H]2O[N+](=O)[O-] | x | i
O=C(c1cccs1)N1C2CCC1CC(O)(c1cccnc1)C2 (stereo not drawn) | >57 | i
CN(C)Cc1c[nH]c2ccccc12 | x | i
Oc1ccccc1-c1ccccc1 | x | i
COc1ccc(C(CC(=O)N2CCC3(CC2)OCCO3)NS(=O)(=O)c2ccc(F)cc2)cc1 (stereo not drawn) | >57 | i
O=C1CN(C(=O)CN2CCCCC2)C(c2ccccc2)c2cc(Br)ccc2N1 (stereo not drawn) | i | i
O=C(Oc1ccc(S(=O)(=O)F)cc1F)c1ccccc1Cl | x | i
CN1C(=O)C(Cc2cccs2)C(=O)N(C)C1=O | x | i
O=C1NC(=O)C2(Cc3ccccc3N3CCCC32)C(=O)N1c1cccc(Cl)c1 (stereo not drawn) | >57 | i
CN1CCC(N2CC3CC(C2)c2cccc(=O)n2C3)CC1 (stereo not drawn) | >57 | i
CC[C@@H]1[C@@H]2C[C@H]3[C@H]4N(C)c5ccccc5[C@@]45C[C@@H]([C@@H]2[C@@H]5O)N3[C@H]1O | x | i
C[C@@]12CC[C@H]3[C@H](CCC4=CC(=O)CC[C@H]43)[C@H]1CC[C@H]2OC1(O)C(=O)c2ccccc2C1=O | x | i
O=C(c1cc(=O)[nH]c2ccc(Br)cc12)N1CCC2(CC1)OCCO2 | >57 | i
CC(C)Oc1ccc(Cc2c(O)[nH]c(=O)[nH]c2=O)cc1 | >57 | i
O=c1cccc2n1CC1CC2CN(c2ncnc3c2cnn3-c2ccc(Cl)cc2)C1 (stereo not drawn) | >57 | i
O=[N+]([O-])C(Br)Br | x | i
COC(=O)c1ccc(COc2cc(C)cc3oc(=O)c4c(c23)CCCC4)o1 | x | i
O=C1CC(c2ccccc2)CC(O)=C1C=NCCN1CCN(C(=O)Cc2ccccc2)CC1 (stereo not drawn) | x | i
COc1ccccc1CN1CC[C@@]2(CCCN(C(=O)Oc3ccccc3)C2)C1 | x | i
C[C@H]1[C@@H](O)[C@@H](C)/C=C\C=CCC\C=C/C=C\C=C/C=C[C@@H](O[C@H]2O[C@@H](C)[C@@H](O)[C@@H](N)[C@@H]2O)C[C@@H]2O[C@@](O)(C[C@@H](O)[C@H]2C(=O)O)C[C@@H](O)[C@@H](O)CC[C@@H](O)C[C@@H](O)C[C@@H](O)CC(=O)O[C@H]1C | x | i
CCN1C[C@@]2(COC)CC[C@H](OC)[C@]34[C@@H]1[C@]1(OCO[C@@]15C[C@@H](OC)C1C[C@H]3[C@H]5[C@@H]1OC)[C@H](O)[C@@H]24 | x | i
NCCc1c[nH]c2ccccc12 | x | i
COc1ccc2c3c1O[C@@H]1C(=O)CC[C@@]4(O)[C@@H](C2)N(CC2CC2)CC[C@]314 | x | i
Clc1cncc(N2CCNCC2)n1 | x | i
O=C(NCP(=O)(O)O)c1cccnc1 | x | i

Continued.
SMILES | Bst PK mod | TsaE inh
Nc1ccccc1Cl | x | i
C(=NC1CCCCC1)=NC1CCCCC1 | x | i
CC(=O)Nc1ccccc1OP1(=O)COc2ccccc2OC1 | >57 | i
CS(=O)(=O)N1CCCC(C(=O)N2CCC3(CC2)OCCO3)C1 (stereo not drawn) | >57 | i
NNC(=O)c1ccc(O)cc1 | x | i
C[C@@H]1[C@@H](C)N1C[C@H](O)Cn1ccnc1[N+](=O)[O-] (stereo partly drawn) | x | i
O=c1[nH]c(=O)n(Cc2ccco2)c(O)c1C=NCCN1CCOCC1 | >26 | x
c1ccc(CCCCN2CCC(c3ccccc3)CC2)cc1 | x | i
CCOC(=O)N(CC)c1ccc(C(O)(C(=O)OCC)C(F)(F)F)cc1 (stereo not drawn) | x | i
c1nc[nH]n1 | x | i
Oc1ccc(Br)cc1CN1CCN(c2ccccc2)CC1 | x | i
Cc1nnc2ccc(N3CCN(C)CC3)nn12 | x | i
O=C(Cc1cccs1)N1CCC2(CC1)OCCO2 | >57 | i
Oc1c(Br)c(Br)c(Br)c(Br)c1Br | x | i
Cc1cc(NC(=O)COC(=O)c2c(C)nn(Cc3ccccc3Cl)c2Cl)no1 | >57 | i
CCC(COC(=O)c1cc(OC)c(OC)c(OC)c1)(c1ccccc1)N(C)C (stereo not drawn) | >11 | x
Cc1cc(CN(C)C)c(OC(=O)N(C)C)cc1C | >57 | i
CCC1(c2ccccc2)C(=O)N(COC)C(=O)N(COC)C1=O | x | i
Clc1cccc(N2CCNCC2)c1 | x | i
N[C@H](Cc1c[nH]c2ccccc12)P(=O)(O)O | x | i
O=P(O)(O)C12CC3CC(CC(C3)C1)C2 | >57 | i
O=C(O)c1cc[c]([Hg][S]c2ncnc3nc[nH]c23)cc1 | x | i
Cc1ccc(N)cc1Cl | x | i
CCC1CCCCN1P(=O)(c1ccc(C)o1)C(C)(C)C (stereo not drawn) | >57 | i
CCOc1ccc(-n2c(O)c(C=NCCN3CCNCC3)c(=O)[nH]c2=O)cc1 | >26 | x

For reference, two of the compounds above.
SMILES | Bst PK mod | TsaE inh
CCC1CCCCN1P(=O)(c1ccc(C)o1)C(C)(C)C (stereo not drawn) | >57 | i
CCOc1ccc(-n2c(O)c(C=NCCN3CCNCC3)c(=O)[nH]c2=O)cc1 | >26 | x

Later entries.
SMILES | Bst PK mod | TsaE inh
CC(C)C#N | x | i
CNC(=O)Oc1cccc2ccccc12 | x | i
CN(C)C1=NP(N(C)C)(N(C)C)=NC(c2ccccc2)=N1 | >57 | i
C=C(C)[C@@H]1CN[C@H](C(=O)O)[C@H]1CC(=O)O | x | i
COc1ccc(C(=O)N2CCOCC2)cc1S(=O)(=O)N1CCC(C)CC1 | >57 | i
Cc1cc(S(=O)(=O)NCC(C)C)ccc1OCC(=O)N1CCN(Cc2ccccc2)CC1 | >57 | i
COc1ccc(CCN(C)Cc2c(F)cccc2F)cc1OC | x | i
Cc1cc2c(C(F)(F)F)cc(=O)oc2c2c1NCCC2 | x | i
O=C1C2CC=CCC2C(=O)N1SC(Cl)(Cl)Cl (stereo not drawn) | x | i
C[C@]1(O)CC[C@H]2[C@@H]3CCC4=CC(=O)CC[C@]4(C)[C@@]3(F)[C@@H](O)C[C@@]21C | x | i
Cc1cc(S(=O)(=O)NCc2ccccc2)ccc1OCC(=O)N1CCN(C)CC1 | >57 | i
CN(C)CS/C(N)=N/[C@H](O)C(Cl)(Cl)Cl | x | i
CC(C)(C)c1nc(N2CCN(C(=O)c3ccco3)CC2)c2nnn(Cc3ccccc3Cl)c2n1 | >57 | i
CCC(=NCCCN(CC)CC)c1c(O)n(-c2ccccc2)c(=O)[nH]c1=O | >11 | i
O=P(O)(O)C(Cl)(Cl)P(=O)(O)O | x | i
O=c1ccc2cc(O[C@@H]3O[C@@H](CO)[C@@H](O)[C@@H](O)[C@H]3O)c(O)cc2o1 | x | i
CN(C)C1=NC(N(C)C)=NP(N(C)C)(N(C)C)=N1 | x | i
c1ccc(P(c2ccccc2)c2ccccc2)cc1 | x | i
COC1=C[C@H]2[C@@H]3Cc4ccc(OC)c(O)c4[C@@]2(CCN3C)CC1=O | x | i
CC(C)CN1CC2(CCN(C(=O)c3ccncc3)CC2)C1 | x | i
COc1ccc(CCN)cc1O | x | i
CN(C)P1(N(C)C)=Nc2c(c(N)nn2C)C(c2ccccc2)=N1 | >57 | i
C1=C(c2c[nH]c3ccccc23)CCNC1 | x | i
N[C@@H](Cn1cc(I)c(=O)[nH]c1=O)C(=O)O | x | i
COC(=O)c1cc2c(s1)=NC=NP=2(N1CCOCC1)N1CCOCC1 | >57 | i

(next part)
SMILES | Bst PK mod | TsaE inh
COC(=O)CC1NC2CCCCC2NC1=O (stereo not drawn) | >57 | i
O=P(O)(O)c1ccccc1 (tested in a mixture with another compound) | x | i
Cc1cc(-c2ccc(N)c(C)c2)ccc1N | x | i
c1ccc2c3c([nH]c2c1)CNCC3 | >26 | x
COC(=O)C1C2c3ccccc3OC1(C)N=c1s/c(=C/c3cn(C)nc3C)c(=O)n12 (stereo not drawn) | >57 | i
C[C@@H]1O[C@H](O[C@@H]2C[C@@H](O)[C@]3(CO)[C@H]4[C@H](O)C[C@]5(C)[C@@H](C6=CC(=O)OC6)CC[C@@]5(O)[C@@H]4CC[C@]3(O)C2)[C@@H](O)[C@H](O)[C@H]1O | x | i
COc1ccc(C[C@@H]2NC[C@H](O)[C@@H]2OC(C)=O)cc1 | x | i
CCC(=NCc1ccc2c(c1)OCO2)c1c(O)n(C)c(=O)n(C)c1=O | >57 | i
CCOC(=O)c1c(C)c(C(=O)N2CCC3(CC2)OCCO3)c(C)n1CC | >57 | i
CCCCCCOC(=O)c1ccccc1N | x | i
CC1SC2(CN3CCC2CC3)NC1=O (stereo not drawn) | x | i
CCOC(=O)CC1=C(C(=O)OCC)C2(C(=O)N1)C(C(=O)OC)=C(N)Oc1ccccc12 (stereo not drawn) | >57 | i
C=CCN1C[C@H](C)N([C@H](c2ccc(C(=O)N(CC)CC)cc2)c2cccc(OC)c2)C[C@H]1C | x | i
O=c1ccc2[nH]cc(C3=CCNCC3)c2[nH]1 | x | i
CC(=C1C(=O)c2ccccc2C1=O)N1CCN(CCN=Cc2c(O)n(C)c(=O)n(C)c2=O)CC1 | >26 | x
Cc1nc2cc(-c3cccc(F)c3)nn2c(C)c1CCC(=O)N1CCC2(CC1)OCCO2 | >57 | i
COc1ccc2c(c1OC)CN1CCc3cc4c(cc3[C@H]1C2)OCO4 | x | i
BrCCc1ccccc1 | x | i
O=C(Cn1cc(C(=O)c2ccccc2)c2ccccc21)NCc1ccco1 | >57 | i
O=C=NC1CCCCC1 | x | i
CC(=O)Nc1ccc(OC(=O)N(C)C)cc1 | >57 | i
CCN(CC)CCO[C@H]1CC[C@@]2(C)C(=CC[C@@H]3[C@H]2CC[C@]2(C)C(=O)CC[C@H]32)C1 | x | i
CC1CN=C(Nc2cccc3ccccc23)S1 (stereo not drawn) | >57 | i
CC(C)(Cl)[N+](=O)[O-] | x | i
CCCCCCOc1ccc(CN2CCN(C)CC2)cc1 | x | i

Looked up by compound from above, 7 records:
SMILES | Bst PK mod | TsaE inh
O=C=NC1CCCCC1 | x | i
BrCCc1ccccc1 | x | i
CCCCCCOc1ccc(CN2CCN(C)CC2)cc1 | x | i
CC(C)(Cl)[N+](=O)[O-] | x | i
CC(=C1C(=O)c2ccccc2C1=O)N1CCN(CCN=Cc2c(O)n(C)c(=O)n(C)c2=O)CC1 | >26 | x
CCCCCCOC(=O)c1ccccc1N | x | i
COc1ccc2c(c1OC)CN1CCc3cc4c(cc3[C@H]1C2)OCO4 | x | i

Single values from above.
Value for `CC(=O)Nc1ccc(OC(=O)N(C)C)cc1` in Bst PK mod: >57
Value for `CC(=C1C(=O)c2ccccc2C1=O)N1CCN(CCN=Cc2c(O)n(C)c(=O)n(C)c2=O)CC1` in Bst PK mod: >26

(cont.)
SMILES | Bst PK mod | TsaE inh
N#CCc1ccccc1 | x | i
CCCN1CCC2(CC1)NC(CO)(CO)CO2 | >57 | i
O[C@H]1C2CCC1C(N1CCCCC1)CC2 (stereo partly drawn) | >57 | i
CCN1CCN(Cc2cc(Br)cc(OC)c2O)CC1 | >57 | i
NC[C@@H](O)CSP(=O)(O)O | x | i
CN1CCN(Cc2ccccc2C(F)(F)F)CC1 | x | i
CCCCn1c(O)c(C=NC2CC3CCC2(C)C3(C)C)c(=O)[nH]c1=O (stereo not drawn) | >57 | i
ClC1=CCC2CN(CCN3CCCCC3)CC2C1 (stereo not drawn) | >57 | i
CCN(N=O)C(N)=O | x | i
Cc1noc(C)c1C(=O)N1CCC2(CCCN(CC(C)C)C2)CC1 | x | i
C#CCOC(=O)C1=CCCN(C)C1 | x | i
CCCCn1c(O)c(C(C)=NC(C)c2ccccc2)c(=O)[nH]c1=O (stereo not drawn) | >57 | i
COC1=CC(=O)OC(CCc2ccc3c(c2)OCO3)C1 (stereo not drawn) | x | i
NC[C@H](O)c1ccc(O)cc1 | x | i
NNc1c(C(N)=O)c2c(N)ncnc2n1[C@@H]1O[C@H](CO)[C@@H](O)[C@@H]1O | x | i
CN1C[C@H](CNC(=O)OCc2ccccc2)C[C@H]2c3cccc4c3c(cn4C)C[C@@H]21 | x | i
NC(=O)CN1C2CCC1CC(NC(=O)C1CC1)C2 (stereo not drawn) | >57 | i
NS(=O)(=O)c1ccc(N=Cc2c(O)n(C3CCCCC3)c(=O)n(C3CCCCC3)c2=O)cc1 | x | i
C[C@@H]1O[C@H](O[C@H]2C[C@@H](O)[C@]3(CO)[C@H]4[C@H](O)C[C@]5(C)[C@@H](C6=CC(=O)OC6)CC[C@@]5(O)[C@H]4CC[C@]3(O)C2)[C@@H](O)[C@H](O)[C@H]1O | x | i
N#Cc1ccccc1Cn1cc(C(=O)C2CC2)c2ccccc21 | >57 | i
O=C1CC(=O)N(c2cccc(Cl)c2)C(=O)N1 | >57 | i
CC(=O)O/C(=C1/C[C@H]2[C@@H]3CC=C4C[C@@H](OC(C)=O)CC[C@]4(C)[C@@H]3CC[C@]2(C)C1=O)C(F)(F)F | x | i
CC(=NCC1CCCO1)c1c(O)n(-c2ccccc2)c(=O)[nH]c1=O (stereo not drawn) | >57 | i
CCCCC(CC)COC(=O)c1ccccc1C(=O)OCC(CC)CCCC (stereo not drawn) | x | i

By substructure, the compounds so far with a tert-butyl group
SMILES | Bst PK mod | TsaE inh
CCC1CCCCN1P(=O)(c1ccc(C)o1)C(C)(C)C (stereo not drawn) | >57 | i
CC(C)(C)c1nc(N2CCN(C(=O)c3ccco3)CC2)c2nnn(Cc3ccccc3Cl)c2n1 | >57 | i

Source: PubChem BioAssay (National Center for Advancing Translational Sciences (NCATS))

The list is partial; count on the stated rates, not on these rows.
